StopGo reporter = High Throughput Screening for Foot and Mouth Disease Virus Antivirals; 410,000 tested, 1.2% active; Potency, µM (highest dose often 57.9 µM), for inactives: at the highest dose signal change, negative = less light; human cells with a luciferase reporter of 2A StopGo recoding; control for the full effect not named in the record; active = well fitted falling curve with a large enough effect; inconclusive = small, poorly fitted or top-dose-only effect; inactive = no such curve, though single readings can be large or run the other way; tested in HEK293T cells; note: % is set by controls: 0 for no effect and ±100 for the full control effect; nearly all actives have a fitted effect of over 45% in size; luciferase light after 4 h
RE007 growth inh = qHTS Assay for Inhibitors of the HIV-1 protein Vpr | S. pombe RE007 Vpr strain, BacTiter-Glo ATP luminescence, 24 h; control for the full effect not named in the record | 360,000 tested, 0.21% active | Potency, µM (doses to about 92.2 µM), without a hit: at the top dose activity change, negative = less growth | AID 651644, 2012; active = well fitted falling curve with a large enough effect; inconclusive = small, poorly fitted or top-dose-only effect; inactive = no such curve, though single readings can be large or run the other way;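 note: % is set by controls: 0 for no effect and ±100 for the full control effect; nearly all actives have a fitted effect of over 50% in size; the assay follows cell death caused by Vpr and the record does not say whether a fall means rescue or toxicity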
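Fission yeast RE007 carrying one integrated HIV-1 vpr copy, seeded at OD 0.01 in PMG+AL medium with 23 nL pinned compound. Grown 24 h at 30 degrees; viability read by BacTiter-Glo luminescence after 5 min.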
SARS PLpro yeast = qHTS of Yeast-based Assay for SARS-CoV PLP | S. cerevisiae expressing SARS-CoV PLpro, growth rescue; control for the full effect not named in the record | Potency, µM (series often up to 32.9 µM), for the others: at the highest dose activity, positive = growth rescue | 330,000 tested, 0.19% active | AID 485353, 2010; note: 0% is about no effect; nearly all actives have a fitted effect of over 55% in size; growth read by luminescence after 48 h
Cruzain Triton = qHTS Assay for Promiscuous and Specific Inhibitors of Cruzain (with detergent); Cruzipain (Trypanosoma cruzi), P25779; purified cruzain, Z-FR-AMC fluorescence, 0.01% Triton; Potency, µM, without a hit: max response, negative = inhibition, actives largely listed as inhibitors; 200,000 tested, 0.43% active; AID 1478, 2009; active = well fitted curve in the direction sought with a large enough effect; inconclusive = small, poorly fitted or top-dose-only effect, or another doubt; inactive = no such curve, though single readings can be large; an effect the other way counts as inactive or inconclusive;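 note: plate controls were neutral wells for no effect and buffer without enzyme for full effect; nearly all actives have a fitted effect of over 40% in size; top concentration of the series not given in the record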
Target sequence (P25779 123-467 limits assumed): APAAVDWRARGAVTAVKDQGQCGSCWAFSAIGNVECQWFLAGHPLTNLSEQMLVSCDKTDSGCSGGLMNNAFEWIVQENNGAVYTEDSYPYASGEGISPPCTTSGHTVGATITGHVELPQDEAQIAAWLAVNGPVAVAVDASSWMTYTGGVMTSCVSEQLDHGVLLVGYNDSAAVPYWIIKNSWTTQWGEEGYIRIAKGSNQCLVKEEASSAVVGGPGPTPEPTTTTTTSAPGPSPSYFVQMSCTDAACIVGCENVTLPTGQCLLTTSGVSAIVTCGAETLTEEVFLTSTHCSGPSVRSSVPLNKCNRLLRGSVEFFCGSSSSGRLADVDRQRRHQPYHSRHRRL
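Steps: dispense cruzain (1.5 nM final) in acetate buffer pH 5.5 with DTT and 0.01% Triton X-100; pin-transfer compounds; incubate 15 min RT; add Z-FR-AMC (2 uM final); read fluorescence every 30 s, using the 60 s intensity change.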
Cruzain inh noDet = qHTS Assay for Promiscuous and Specific Inhibitors of Cruzain (without detergent); Potency, µM, for the others: max response, negative = inhibition, actives largely listed as inhibitors; purified cruzain, Z-FR-AMC fluorescence, no detergent; AID 1476, 2009; Cruzipain (Trypanosoma cruzi), P25779; 200,000 tested, 2.3% active; active = well fitted curve in the direction sought with a large enough effect; inconclusive = small, poorly fitted or top-dose-only effect, or another doubt; inactive = no such curve, though single readings can be large; an effect the other way counts as inactive or inconclusive;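 note: plate controls were enzyme without inhibitor for no effect and buffer without enzyme for full effect; nearly all actives have a fitted effect of over 40% in size; top concentration of the series not given in the record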
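Purified cruzain at 1.5 nM, pre-incubated 15 min with compound at room temperature in 100 mM sodium acetate pH 5.5, 5 mM DTT, 0.00005% Triton X-100. Reaction started with 2 uM Z-FR-AMC; AMC fluorescence increase over 60 s gives rate.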
LASV entry inh = qHTS for Inhibitors of binding or entry into cells for Lassa Virus; Potency, µM (highest dose often 37.9 µM), for the others: top-dose activity change, negative = inhibition, actives largely listed as inhibitors; Lassa virus pseudotype entry inhibition, cell reporter; control for the full effect not named in the record; 300,000 tested, 1.2% active; active means well fitted inhibition curve with a large enough effect; inconclusive means small, poorly fitted or top-dose-only effect, or effect the other way; inactive means flat fitted curve, though single readings scatter; tested in HEK293 cells; note: % is set by controls: 0 for no effect and ±100 for the full control effect; nearly all actives have a fitted effect of over 50% in size; luciferase read-out
Marburg entry inh = qHTS for inhibitors of binding or entry into cells for Marburg Virus; Marburg virus pseudotyped entry inhibition, cell reporter; control for the full effect not named in the record; about a third of the inactives were read at about 46 µM; Potency, µM (top dose mostly 37.8 µM), for the others: at the top dose activity change, negative = inhibition, usual class: inhibitors; 300,000 tested, 1.8% active; AID 540276, 2011; active = well fitted inhibition curve with a large enough effect; inconclusive = small, poorly fitted or top-dose-only effect, or effect the other way; inactive = flat fitted curve, though single readings scatter; tested in HEK293 cells; about a fifth of its hits are not listed in these tables; note: % is set by controls: 0 for no effect and ±100 for the full control effect; luciferase read-out
NS1 inh = qHTS Assay for Inhibitors of Influenza NS1 Protein Function | Potency, µM (doses to about 46.1 µM), for inactives: at the top dose activity, positive = more growth | 270,000 tested, 0.4% active | AID 2326, 2010 | S. cerevisiae slowed by influenza A NS1, growth recovery by OD600; note: actives are rising curves; nearly all actives have a fitted effect of over 50% in size
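Compounds were scored for reversing the slow growth caused by influenza A NS1 in S. cerevisiae, measured by optical density at 600 nm. Assay medium contained 2% galactose at pH 6.0; NS1-free yeast of the same strain were the positive control.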
Active calls of the source: *; u = inconclusive; x = no result given; & = joins results of further samples; [ ] = remark or other dose. Unless noted, calls come from the whole dose curve; as a rule, active means well fitted rising curve with a large enough effect; inconclusive means small, poorly fitted or top-dose-only effect; inactive means no such curve, though single readings can be large or run the other way. Potency is the fitted concentration of half-maximal effect.

SMILES	StopGo reporter	RE007 growth inh	SARS PLpro yeast	Cruzain Triton	Cruzain inh noDet	LASV entry inh	Marburg entry inh	NS1 inh
Cc1ccccc1NC(=O)Nc1ccccc1N1CCCCC1	8%	-8%	-1%	x	x	x	x	-4%
CCCCN(C)CCNC(=O)Cn1c(=O)sc2ccccc21	2%	-5%	4%	8.0%	6%	x	x	0%
O=C(O)c1cc(N2CCCCC2)ccn1	-12%	6%	x	x	x	10%	10%	x
CN=C1S/C(=C/c2cn(CC(=O)OC)c3ccccc23)C(=O)N1C	-14%	0%	-1%	x	x	-24%	11%	-2%
Cc1ccc(-n2c(CNc3ccc(C)c(Cl)c3)n[nH]c2=S)cc1	-13%	1%	1%	x	x	x	x	5%
O=C(c1cccc(C(=O)N2CCN(c3ccc(F)cc3)CC2)c1)N1CCN(c2ccc(F)cc2)CC1	40µM*	1%	0%	-4.5%	u	u	u	-5%
CCC(C)NC(=O)c1sc2nc(C)c(C(=O)Nc3ccc(C)cc3C)c(-c3ccc(Br)cc3)c2c1N (stereo not given)	0%	x	x	1.4%	0%	7%[46.1 µM]	u	x
COc1cccc(/C=N/NC(=O)CCCc2ccc(OC)c(C)c2)c1	26%	-3%	14%	-8.1%	1%	-26%	-2%	-8%
COc1cccc(-c2nc(-c3ccccc3)no2)c1	3%	-29%	-3%	-3.1%	-1%	14µM*	u	-63%
O=C(NCC1CCCO1)C1CCN(S(=O)(=O)Cc2ccccc2)CC1 (stereo not given)	-21%	14%	0%	-0.2%	0%	-7%	-6%[46.1 µM]	0%
O=C(N/N=C/c1ccc(F)cc1)c1cccc(NC(=O)c2ccc(F)cc2)c1	-3%	-5%	-5%	x	x	u	-14%[46.1 µM]	9%
CCOC(=O)N/N=C/c1cn(CCCOc2ccc(C)cc2)c2ccccc12	-12%	-6%	0%	-8.6%	-13%	u	7.1µM*	12%
CCn1nnnc1NCc1cccc(Cl)c1	15%	9%	0%	x	x	5%	-4%	-1%
CCOC(=O)c1c(C)n(C)c2ccc(OC)c(NC(=O)CN3CCC4(CC3)OCCO4)c12	4%	-15%	0%	1.6%	-9%	-9%	3%	11%
COc1cccc(CN2CCNC(=O)C2CC(=O)NCCCn2ccnc2)c1 (stereo not given)	-15%	8%	1%	x	x	-3%	-2%[46.1 µM]	1%
COc1ccc2cc(S(=O)(=O)N3CCN(C)CC3)ccc2c1	-2%	8%	-8%	-2.6%	8%	-12%	5%[46.1 µM]	-5%
O=C(NC1CCCCC1)N(Cc1ccc(F)cc1)Cc1nc2ccccc2c(=O)[nH]1	7%	-1%	-3%	0.4%	-2%	8%	-2%	-17%
Cc1ccc(CNCc2c(C(=O)O)n(Cc3ccc(C)cc3)c3cc(C)ccc23)cc1	-16%	x	x	-11%	0%	u	x	x
COc1cccc(N(C(=O)c2snc(C(N)=O)c2N)C(C(=O)NCC2CCCO2)c2ccc(F)cc2)c1 (stereo not given)	-15%	-6%	0%	x	x	u	-15%[46.1 µM]	-2%
COc1cccc(C2=NOC(C(=O)Nc3cccc(C(C)=O)c3)C2)c1 (stereo not given)	-15%	3%	-11%	-1.5%	-8%	55%[14.3 µM]	5%	2.8µM*
CC(=O)c1cn(Cc2ccc(F)cc2)c2ccccc12	u	12%	-13%	x	x	-15%	u	-23%
O=C(CSCc1ccc(F)cc1)NC1CCCC1	x	-4%	0%	7.6%	6%	22%	10%	-1%
Cn1c(=NC(=O)c2ccc3c(c2)OCCO3)sc2cc(S(C)(=O)=O)ccc21	0%&14%	24%	0%	2.9%	-9%	u	-2%&-2%[46.1 µM]	x
N=C1S/C(=C\c2ccccc2)C(=O)N1c1ccc(F)cc1	23%	4%	-10%	3.4%	25µM*	4%	3%	-5%
O=C(CSc1nnc(CN2CCOCC2)n1-c1ccc(Cl)cc1)Nc1ccc2c(c1)OCO2	-3%	-4%	5%	4.9%	u	31%[14.3 µM]	u	-2%
COc1ccc(CCN(C)C(=O)CNC(=O)c2ccc3c(c2)OCO3)cc1OC	-19%	-4%	-1%	x	x	13%	-2%	13%
CCc1ccc(NC(=O)CSc2ccnc(=O)[nH]2)cc1	0%	x	x	0.2%	-9%	30%[46.1 µM]	x	x
COC(=O)C1=C(C)N(C)C(=S)NC1c1cc(OC)ccc1OC (stereo not given)	1%	-13%	1%	x	x	-2%[46.1 µM]	-2%[46.1 µM]	x
CCOc1ccc(-c2csc(/C(C#N)=C/c3ccc(Br)cc3)n2)cc1	-13%	x	x	-0.5%	-8%	5%[46.1 µM]	x	x
CCS(=O)(=O)c1nc2ccccc2n1Cc1ccccc1Cl	0%	3%	3%	-9.5%	16%	x	x	-34%
CCC1CCC(N2CCN(c3ccccc3F)CC2)CC1 (stereo not given)	-16%	-7%	1%	x	x	x	x	-1%
O=C(Cc1cccs1)Nc1nnc(-c2ccc(F)cc2)s1	45%[activator]	1%	-1%	x	x	3%	7%	7%
O=C1CS/C(=N/N=C/c2ccco2)N1Cc1ccc(F)cc1	5%	-4%	0%	x	x	x	x	1%
COc1ccc(CNC(=O)C(=O)NCC(c2cccnc2)N2CCN(c3ccccc3)CC2)cc1 (stereo not given)	-10%	x	x	-4.2%	-4%	11%[46.1 µM]	x	x
CCN(CC(=O)Nc1ccc(OC)cc1)C(=O)CSCC(=O)Nc1ccc(C)cc1	-9%	6%	1%	x	x	4%	u	15%
COc1ccc(NC(=O)N2CCC(n3cnc4ccccc43)CC2)cc1	-6%	-15%	-1%	x	x	x	x	0%
COc1ccccc1Nc1nc(N)nc(CSCCO)n1	18%	-5%	5%	2.8%	-9%	18%	13%	0%
CCOC(=O)Cn1c2c(c(=N)c3c1CCC3)CCC2	0%	-8%	3%	1.5%	-4%	7%	11%	7%
Cc1c(NC(=O)c2cc(-c3ccccc3O)on2)c(=O)n(-c2ccccc2)n1C	-12%&8%	22%	2%	-2.5%	1%	5%[46.1 µM]	13%&13%[46.1 µM]	-2%
CC(=O)c1ccc(OCCCC(=O)Nc2cccc(S(=O)(=O)N3CCOCC3)c2)cc1	-13%	3%	0%	x	x	-6%[46.1 µM]	-12%[46.1 µM]	x
COc1cc(C(=O)OCC(=O)N(CC(C)C)C2CCS(=O)(=O)C2)ccc1OCC(C)C (stereo not given)	-18%	-4%	-4%	x	x	-20%	8%[46.1 µM]	x
COc1ccc(CCNc2cn[nH]c(=O)c2Cl)cc1OC	1%	3%	-2%	x	x	-3%[46.1 µM]	21%[46.1 µM]	0%
CC#CCNCc1ccccc1	-25%	2%	4%	2.0%	-6%	-4%	5%	15%
CN(C)c1ccc(/C=N/NC(=O)c2ccccn2)cc1	-79%	-23%	-2%	x	x	u	u	-39%
Clc1cc(NCc2cccs2)ccc1N1CCOCC1	20%	-19%	-12%	-8.4%	2%	5%	u	-46%
O=C(CC1NC(=O)NC1=O)Nc1ccccc1 (stereo not given)	8%	1%[3.69 µM]	-8%	1.1%	-2%	u	u	-1%
O=C1CN(C(=O)CCN2CCOCC2)C(c2ccccc2)c2cc(Br)ccc2N1 (stereo not given)	7%	1%	-7%	8.8%	-1%	-7%	13%	-3%
O=C(CN1C(=O)C2CCCCN2c2ccc(C(=O)N3CCCC3)cc21)NCc1ccccc1 (stereo not given)	19%	x	x	-2.7%	-1%	-24%[46.1 µM]	x	x
NS(=O)(=O)c1cc([N+](=O)[O-])ccc1NCc1cccnc1	27%	-2%	0%	x	x	-1%[46.1 µM]	4%[46.1 µM]	1%
O=C(Cc1noc2ccccc12)Nc1ccc(Cl)cc1	28%	-13%	-12%	-7.5%	-16%	5%	u	-35%
O=C(Nc1ncn[nH]1)c1cccc(S(=O)(=O)N2CCOCC2)c1	-9%	8%	0%	x	x	-19%	u	13%
O=C(Cc1cc(=O)oc2cc(O)ccc12)NN=Cc1ccc(N(CCCl)CCCl)cc1	-26%	4%	x	x	x	u	4.5µM*	x
O=C(CN1CCN(C/C=C/c2ccccc2)CC1)NCc1ccc(Cl)cc1	-25%	-5%	-1%	x	x	x	x	-7%
CCCS/C(N)=N/N=C/c1ccccc1O	33%[activator]	u	-4%	-13%	-12%	u	u	-56%
Cc1cccc(CCNC(=O)C2CCCN(S(=O)(=O)c3ccc4c(c3)oc(=O)n4C)C2)c1 (stereo not given)	-13%	x	x	-2.9%	7%	-18%[46.1 µM]	7%[46.1 µM]	x
CCOC(=O)N1CCN(c2ccc([N+](=O)[O-])cc2F)CC1C (stereo not given)	u	x	-9%	-5.5%	-9%	-1%	-16%	-9%
CCOC(=O)c1c(S(=O)(=O)NCC(=O)Nc2ccc(OC)cc2)c(C)n(C)c1C	0%	-2%	-2%	x	x	x	x	-4%
CCN=C(NCC)SC1CC(=O)N(c2cccc(OC)c2)C1=O (stereo not given)	-23%	-2%	-1%	1.3%	13%	-3%	-8%	-4%
CCOC(=O)CSc1nc(-c2ccccc2)ns1	22%	-21%	0%	x	x	-41%	-15%[46.1 µM]	x
CC(=O)Nc1ccc(S(=O)(=O)NC2(c3ccccc3)C(=O)N(C)C(=O)N(C)C2=O)cc1	-9%	0%	x	x	x	1%	19%	x
CC1CC(C)CN(C(=O)C2CCN(C(=O)Nc3ccccc3)CC2)C1 (stereo not given)	-10%	5%	-2%	x	x	4%	-25%	x
c1ccc(-c2cccc(-c3ccccc3)n2)cc1	54%[activator]	3%	0%	x	x	x	x	2%
N#Cc1cnn2c(C(F)(F)F)cc(-c3ccccc3)nc12	-8%	-15%	-3%	x	x	x	x	-18%
